High-throughput results from PubChem BioAssay.
Mito fusion act – blocks mitochondrial division or promotes mitochondrial fusion | S. cerevisiae fusion-defective mutant growth rescue, CellTiterGlo 48 h | Potency, µM (top dose mostly 46.1 µM), for inactives: top-dose growth rescue (activation), most hits filed as activators | 320,000 compounds, 0.23% hits;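 further: % of control where 0% means no effect; nearly all actives have a fitted effect of over 45% in size; temperature-sensitive fusion mutants such as fzo1-1 at 37 °C on non-fermentable ethanol glycerol medium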
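S. cerevisiae fusion-defective temperature-sensitive mutants (e.g. fzo1-1, mgm1-5) grown 48 h at 37C in YPEG (ethanol/glycerol non-fermentable) medium with 23 nl compound per well; growth rescue read as CellTiterGlo luminescence.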
FLuc modulator – firefly luciferase modulation, counter-screen for miR-21 project; AID 588342; 360,000 compounds, 6.9% hits; Potency, µM (top dose mostly 57.5 µM), for inactives: at the top dose activity change, negative = inhibition, actives largely listed as inhibitors; purified FLuc, Km substrates, luminescence inhibition; P08659;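 further: plate controls were vehicle for no effect and reference inhibitor for full effect; nearly all actives have a fitted effect of over 55% in size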
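Purified P. pyralis luciferase, 10 nM final, with Km-level 10 uM D-luciferin and 10 uM ATP in 50 mM Tris acetate pH 7.5, 10 mM Mg acetate, 0.01% Tween-20, 0.05% BSA; 6-point qHTS titration about 60 µM downward; luminescence read.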
Gal4-VP16 FLuc – Gal4-VP16 reporter inhibition counter-screen | Drosophila S2 Gal4-VP16 UAS-luciferase, luminescence, 20 h | Potency, µM (top dose mostly 53.6 µM), inactives show at the highest dose activity, negative = inhibition, most hits filed as inhibitors | 310,000 compounds, 3.5% hits | AID 2546;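 further: Gal4-VP16 expression switched on by copper sulfate through the metallothionein promoter; on the % scale 0 is the no-effect control and ±100 the full control effect; nearly all actives have a fitted effect of over 50% in size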
Menin MLL FP TR – inhibitors of human menin-MLL interaction, mutant MLL peptide. Menin + Texas Red MLL mutant peptide, fluorescence polarization. 270,000 compounds, 0.23% hits. Potency, µM (titrated, usually from 61.6 µM), for the others: at the top dose FP activity change, negative = inhibition, actives largely listed as inhibitors. O00255; active means well fitted inhibition curve with a large enough effect in the polarisation, with a control signal flat, not every such curve was filed as active; inconclusive means small, poorly fitted or top-dose-only effect, or effect the other way, or a change in a side signal; inactive means no such curve, though single readings can be large or run the other way; the % refers to the polarisation; further: % of control where 0% means no effect; many of its hits are not listed in these tables
RORg inh – blocks mouse ROR gamma transcriptional activity. Potency, µM (titrated, usually from 53.6 µM), inactives show at the top dose activity change, negative = inhibition, most hits filed as inhibitors. AID 2551. P51450. Drosophila S2 Gal4-RORgamma UAS-luciferase reporter, 20 h. 310,000 compounds, 5.4% hits; further: on the % scale 0 is the no-effect control and ±100 the full control effect; nearly all actives have a fitted effect of over 60% in size
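Drosophila S2 cells stably expressing Gal4-DBD/mouse RORγ fusion under metallothionein promoter plus UAS-luciferase; compound 1 h, then 700 uM CuSO4 induction for 20 h at ambient temperature; inhibition read as reduced luminescence.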
Rab9 prom act – Rab9 promoter activation; Huh7 Rab9 promoter-luciferase reporter, luminescence, 24 h; Potency, µM (titrated, usually from 9.22 µM), inactives show at the top dose activation, negative = inhibition, most hits filed as activators; 320,000 compounds, 2.8% hits; AID 485297; further: % of control where 0% means no effect; nearly all actives have a fitted effect of over 60% in size
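Huh7 cells stably carrying Rab9 promoter–luciferase reporter, plated 1500 cells/well, compound added after 2 h and incubated 24 h at 37 °C; luciferase luminescence then read after 10 min with detection reagent.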
ELG1 DNA repair – inhibitors of ELG1-dependent DNA repair in HEK293T cells. AID 504467. Potency, µM (top dose mostly 46.1 µM), inactives show top-dose activity change, negative = inhibition, hits mostly inhibitors. HEK293T ELG1-luciferase reporter, luminescence, 16 h; DNA damage induced by 5-fluorouridine. 330,000 compounds, 2.3% hits; further: on the % scale 0 is the no-effect control and ±100 the full control effect; nearly all actives have a fitted effect of over 55% in size
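Reporter activity after DNA damage by 5-fluorouridine is monitored. Compound-treated cells incubate 16 hr at 37 °C, then ONE-Glo is added for 30 min before luminescence reading.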
MBNL1 CUG block – inhibitors of human MBNL1 binding to CUG repeat RNA; AID 2675; Q9NR56; TR-FRET MBNL1-His/biotin-(CUG)12 binding, 665/545 ratio; Potency, µM (series often up to 57.5 µM), for inactives: top-dose activity change, negative = inhibition, usual class: inhibitors; 280,000 compounds, 0.036% hits; active means well fitted inhibition curve with a large enough effect in the signal ratio, with a control signal flat, not every such curve was filed as active; inconclusive means small, poorly fitted or top-dose-only effect, or effect the other way, or a change in a side signal; inactive means no such curve, though single readings can be large or run the other way; the % refers to the signal ratio; further: on the % scale 0 is the no-effect control and ±100 the full control effect
Target sequence (Q9NR56 whole entry, looked up): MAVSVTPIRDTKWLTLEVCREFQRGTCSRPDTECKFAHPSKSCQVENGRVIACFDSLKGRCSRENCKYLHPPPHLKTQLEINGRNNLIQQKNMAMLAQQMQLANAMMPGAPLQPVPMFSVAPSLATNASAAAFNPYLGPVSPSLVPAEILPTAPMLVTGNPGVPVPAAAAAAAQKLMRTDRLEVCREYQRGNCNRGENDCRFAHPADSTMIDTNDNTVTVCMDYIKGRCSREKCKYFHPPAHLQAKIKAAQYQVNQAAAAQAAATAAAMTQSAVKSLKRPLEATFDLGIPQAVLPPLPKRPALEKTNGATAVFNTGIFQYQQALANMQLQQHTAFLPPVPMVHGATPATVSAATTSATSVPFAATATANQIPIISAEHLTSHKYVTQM
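His-tagged MBNL1 binding to biotinylated (CUG)12 RNA was measured by TR-FRET using terbium anti-His antibody (0.055 ng/ul final) and streptavidin-XL665 (5 nM final). Compounds were titrated 92 nM to 58 uM; 60 min at room temperature.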
PKM2 act – increases activity of human pyruvate kinase M2 | P14618 | purified PKM2, Kinase-Glo ATP luminescence, activation; response scale: 0% is enzyme alone, no compound | Potency, µM (series often up to 57.5 µM), for the others: top-dose activation, most hits filed as activators | 260,000 compounds, 0.34% hits | AID 1631; further: on the % scale 0 is the no-effect control and ±100 the full control effect; nearly all actives have a fitted effect of over 55% in size
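Purified hPK-M2 (>95% pure) converted ADP (0.1 mM final) to ATP with 0.5 mM PEP in 50 mM imidazole pH7.2, KCl, MgCl2, Tween 20, BSA; 1 h at room temperature. ATP detected by Kinase-Glo luminescence.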
NPC1 promoter act – activators of NPC1 promoter | AID 485313 | 320,000 compounds, 2.4% hits | Huh7 NPC1 promoter luciferase reporter, 24 h | Potency, µM (highest dose often 9.22 µM), for the others: at the top dose activation, actives largely listed as activators;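 further: % of control where 0% means no effect; nearly all actives have a fitted effect of over 60% in size; reporter is driven by a mutant NPC1 promoter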
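Luminescence from an NPC1 promoter-driven luciferase reporter in stably transfected Huh7 cells was measured after 24 h compound treatment at 37 °C, followed by 10 min ambient incubation with luciferase detection reagent.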
The depositor's hits bear a star; u = inconclusive; x = not tested or not shown; & = joins results of further samples; [ ] = another dose, or the depositor's remark. Unless noted, the call rests on the fitted dose curve; in most records, active means well fitted curve in the direction sought with a large enough effect; inconclusive means small, poorly fitted or top-dose-only effect, or another doubt; inactive means no such curve, though single readings can be large; an effect the other way counts as inactive or inconclusive. Potency means the concentration at half of the fitted maximal effect.

Sequence of screens: Mito fusion act, FLuc modulator, Gal4-VP16 FLuc, Menin MLL FP TR, RORg inh, Rab9 prom act, ELG1 DNA repair, MBNL1 CUG block, PKM2 act, NPC1 promoter act
#1 Cc1ccc(CNC(=O)CNC(=O)c2c(C)nn(C)c2Cl)cc1
 : 3.2%, -2.0%, -1.2%, 4.0%, 21.4%, -0.2%, -1.3%, -18.9%, -2.3%, -3.0%
#2 Cc1ccc(C(=S)N2CCCCCC2)cc1
 : -11.9%, 0.5%, u, -1.2%, u, -2.1%, -8.1%, -10.2%, -7.2%, 2.7%
#3 COC(=O)c1ccc(Sc2ccccc2NS(=O)(=O)c2ccc(C)cc2)nc1
 : 7.3%, 14.9%, -6.9%, x, 2.8%, 3.2%, -7.4%, -11.9%, 3.1%, -5.1%
#4 CC(C)COCC(CN(Cc1ccccc1)c1ccccc1)N1CCCC1 (centres undefined)
 : -7.2%&-15.8%, -2.1%, u, u, u, 4.4%[46.1 µM], x, 1.3%, -10.8%, -0.3%[46.1 µM]
#5 NCc1ccc(S(N)(=O)=O)cc1
 : 0.2%, 2.6%, 6.2%, 5.0%, -7.1%, -1.7%, 8.9%&9.1%, -11.6%, -0.8%, -0.5%
#6 O=C(COc1ccccc1)NNC(=O)COc1ccc([N+](=O)[O-])cc1
 : 7.9%, 3.2%, -9.2%, 14.1%, 1.8%, -1.5%, 12.7%, 10.3%, 8.4%, 6.7%
#7 Cc1ccc(OCCNC(=O)/C=C/c2ccc([N+](=O)[O-])cc2)cc1C
 : -2.6%, -20.9%, 7.2%, u, 11.1%, -1.7%, -11.3%, 18.2%, -1.5%, -1.6%
#8 CN1CC(=O)N2C(Cc3c([nH]c4ccccc34)[C@H]2c2ccc3c(c2)OCO3)C1=O (some centres undefined)
 : x, x, -2.3%, 10.7%, 22.3%, x, x, x, x, x
#9 O=C(N/N=C/c1ccc(O)c2ncccc12)c1cccc(Br)c1
 : -0.6%, 4.1%, u, u, 15.8µM*, -52.8%[inhibitor], u, 8.8%, 1.4%, x
#10 Cc1cc(-c2ccc(C)c(S(=O)(=O)NCCCN3CCCCCC3)c2)on1
 : -1.2%, 0.7%, 5.0%, x, -1.6%, -0.2%, 9.7%, u, x, 15.9%
#11 O=C(NC1CCCC1)c1cc(Cl)ccc1[N+](=O)[O-]
 : -1.0%, x, 7.0%, -18.1%, -0.6%, 0.6%, 12.2%, u, -4.8%, -0.4%
#12 CCN(c1ccc(NC(=O)COC(=O)c2ccc(S(=O)(=O)N3CCCC3)cc2)cc1)C(C)C
 : -3.3%, -3.4%, -2.7%, 15.4%, -16.5%, -4.0%, u, -5.6%, -10.1%, 2.9%
#13 O=Cc1cccn1Cc1ccccc1[N+](=O)[O-]
 : 0.3%, -2.3%, 1.0%, -1.9%, 5.3%, -10.2%, -3.8%, x, 6.5%, 2.6%
#14 CCC(C)n1c(C)nc2c(c1=O)c1nc3ccccc3nc1n2CCC1=CCCCC1 (centres undefined)
 : -1.1%, -0.5%, 0.1%, 7.3%, -19.1%, -2.5%, -17.0%, x, 0.1%, -0.2%
#15 COc1cc(N)c(Cl)cc1C(=O)NC1CCN(Cc2ccccc2)CC1
 : x, x, 15.2%, 15.3%, 1.3%, x, x, x, x, x
#16 COc1ccc(CN(Cc2cccn2C)S(=O)(=O)c2ccccc2)cc1
 : -6.6%, 1.7%, 9.4%, x, 2.7%, 2.0%, -11.5%, -8.7%, -3.1%, 0.3%
#17 CC(=O)NS(=O)(=O)c1ccc(NC(=O)/C=C/c2ccco2)cc1
 : 2.6%, u, -3.9%, 0.0%, 0.3%, 2.3%, 6.1%, 10.2%, 12.3%, -1.6%
#18 Nc1cc(Nc2ccc(Br)cc2)nc(N)n1
 : 5.1%, 13.5µM*, 2.1%, x, 43.0%, u, u, -2.8%, -3.8%, 3.55µM*
#19 O=C(Nc1ccc([N+](=O)[O-])cc1)/C(=C/c1cccc([N+](=O)[O-])c1)NC(=O)C1CCCCC1
 : 3.5%, -0.6%, -6.6%, u, 14.4%, 6.7%, -5.4%, 6.9%, 3.0%, 1.4%
#20 CCOc1cc(C(=O)N2CCN=C2SC)cc(OCC)c1OCC
 : 1.5%, 2.4%, 9.1%, 19.4%, 16.6%, 2.7%, -20.5%, 1.7%, 0.7%, -0.4%

These rows are one share of the data (hit frequency here may not be typical).
